HPGD inh: HPGD (human) dehydrogenase inhibition | P15428 | purified HPGD, NADH fluorescence kinetic, PGE2 substrate | Potency, µM, without a hit: at the top dose activity change, negative = inhibition, actives largely listed as inhibitors | hit rate 4.3% among 150,000 | AID 894; active = well fitted inhibition curve with a large enough effect (not every such curve was filed as active); inconclusive = small, poorly fitted or top-dose-only effect, or another doubt; inactive = no such curve, though single readings can be large or run the other way;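 note: top concentration of the series not given in the record; plate controls included wells without enzyme; inactives centre near -10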
Target sequence (P15428 whole entry, looked up): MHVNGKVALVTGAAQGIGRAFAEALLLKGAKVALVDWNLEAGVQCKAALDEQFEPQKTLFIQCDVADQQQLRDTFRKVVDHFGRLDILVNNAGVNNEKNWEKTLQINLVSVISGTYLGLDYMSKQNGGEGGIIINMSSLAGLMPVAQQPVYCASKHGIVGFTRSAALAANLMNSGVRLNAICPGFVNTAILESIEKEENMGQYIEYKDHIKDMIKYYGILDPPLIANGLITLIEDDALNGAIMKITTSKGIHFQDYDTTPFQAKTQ
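NADH formation kinetics: reaction with 30 uM PGE2 and 1 mM NAD+ (final), 20 nM enzyme, Tris-HCl pH 8 with Tween 20, after 15 min compound preincubation at room temperature. Fluorescence change, last versus first of five reads.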
* = called active by the depositor; ? = inconclusive. % is set by controls: 0 for no effect and ±100 for the full control effect; potency is the fitted concentration of half-maximal effect. Not all compounds are listed; rates above refer to the full screens.

HPGD inh | molecule
-6% | Cc1noc(C)c1-c1nc(N2CCNCC2)c2ccccc2n1
3% | CCNC(=O)NC1(C(=O)Nc2ccc3c(c2)CCC3)CCCCC1
-12% | Cc1cc(C)c(C#N)c(SCc2cc3c(cc2Cl)OCO3)n1
-28% | Cc1cc(C)cc(NC(=O)c2ccc(CNc3c(N4CCOCC4)c(=O)c3=O)cc2)c1
? | O=C(NCCCc1ccccc1)C1CCN(c2nnc(-n3cccc3)s2)CC1
-17% | COCCn1c(-c2ccco2)csc1=Nc1cccnc1
-16% | Cc1ccc([N+](=O)[O-])cc1NC(=O)CCSc1ccc(Cl)cc1
-24% | O=C(NCc1ccco1)c1ccc(COc2ccc(Cl)cc2)cc1
-7% | COCCN1Cc2cccc(C(=O)NC(C)c3cccs3)c2C1=O (stereo unspecified)
-9% | Cn1ccnc1SCC(=O)Nc1ccccc1
-13% | CCN1CCN(S(=O)(=O)Cc2ccccc2)CC1
-7% | Cc1ccc(S(=O)(=O)NCCc2ccc(S(N)(=O)=O)cc2)cc1
8.9µM* | COc1cc2c(cc1OC)-c1c(OC)c(OC)cc3ccnc(c13)C2=O
-26% | COc1c(OC)c2occc2c2oc(=O)ccc12
-5% | CCCc1cc(=O)[nH]c(SCC(=O)N2CCN(c3ccccc3)CC2)n1
-9% | O=C(NC(=S)N1CCN(c2ccccn2)CC1)c1ccccc1
-8% | O=C(Cn1cnc2ccccc2c1=O)NC1CCCc2ccccc21 (stereo unspecified)
8% | CCNc1nc(NC(C)C)nc(Nn2cnnc2)n1
11µM* | CC(C)CC(=O)Nc1ccc(Nc2ccccc2)cc1
0% | C[C@@H](C[N+](C)(C)C)OC(N)=O
-9% | CN(C)C(=O)N1CCCC(C(=O)NCc2ccc(F)cc2Cl)C1 (stereo unspecified)
-1% | O=S(=O)(c1ccccc1)N1CCC(N2CCCCCC2)CC1
-6% | Cc1ccc(C(=O)Nc2nc3nc(-c4ccccc4)cc(=O)n3[nH]2)cc1
? | N#Cc1nc(-c2ccccc2F)oc1NCc1cccc2c1OCO2
-17% | CC(C)N1CC2=C(OC(N)=C(C#N)C2c2cccnc2)/C(=C/c2cccnc2)C1 (stereo unspecified)
-14% | O=C(O)C1C2C=CC3(CN(C/C=C/c4ccccc4)C(=O)C13)O2 (stereo unspecified)
-11% | Cc1cc(C)n(CC(=O)N/N=C/c2ccccn2)n1
-6% | CCN(CC)c1ccc(C2NC(=O)NC(C)=C2C(=O)Nc2ccccc2)cc1 (stereo unspecified)
-14% | CCOc1cc(C(=S)N2CCCCC2)ccc1OS(=O)(=O)c1ccc(Br)cc1
-1% | Cn1c(=O)c2c(nc(Br)n2CC(=O)c2cccs2)n(C)c1=O
4% | CC(=O)OC1CC2C(C)(C)C(O)CCC2(C)C2CC[C@]3(C)C(=CC(=O)OC3c3ccoc3)C12C (stereo partly specified)
-2% | C=CCn1c(=O)c2ccccc2n2c(SCc3c(C(=O)OCC)oc4ccccc34)nnc12

Exported with tabs: part of the list above.
SMILES	HPGD inh
CCCc1cc(=O)[nH]c(SCC(=O)N2CCN(c3ccccc3)CC2)n1	-5%
O=C(NC(=S)N1CCN(c2ccccn2)CC1)c1ccccc1	-9%
O=C(Cn1cnc2ccccc2c1=O)NC1CCCc2ccccc21 (stereo unspecified)	-8%
CCNc1nc(NC(C)C)nc(Nn2cnnc2)n1	8%
CC(C)CC(=O)Nc1ccc(Nc2ccccc2)cc1	11µM*
C[C@@H](C[N+](C)(C)C)OC(N)=O	0%
CN(C)C(=O)N1CCCC(C(=O)NCc2ccc(F)cc2Cl)C1 (stereo unspecified)	-9%
O=S(=O)(c1ccccc1)N1CCC(N2CCCCCC2)CC1	-1%
Cc1ccc(C(=O)Nc2nc3nc(-c4ccccc4)cc(=O)n3[nH]2)cc1	-6%
N#Cc1nc(-c2ccccc2F)oc1NCc1cccc2c1OCO2	?
CC(C)N1CC2=C(OC(N)=C(C#N)C2c2cccnc2)/C(=C/c2cccnc2)C1 (stereo unspecified)	-17%
O=C(O)C1C2C=CC3(CN(C/C=C/c4ccccc4)C(=O)C13)O2 (stereo unspecified)	-14%
Cc1cc(C)n(CC(=O)N/N=C/c2ccccn2)n1	-11%
CCN(CC)c1ccc(C2NC(=O)NC(C)=C2C(=O)Nc2ccccc2)cc1 (stereo unspecified)	-6%
CCOc1cc(C(=S)N2CCCCC2)ccc1OS(=O)(=O)c1ccc(Br)cc1	-14%
Cn1c(=O)c2c(nc(Br)n2CC(=O)c2cccs2)n(C)c1=O	-1%
CC(=O)OC1CC2C(C)(C)C(O)CCC2(C)C2CC[C@]3(C)C(=CC(=O)OC3c3ccoc3)C12C (stereo partly specified)	4%

The list goes on:
HPGD inh | molecule
-9% | CC(C)(C)c1ccc(NC(=O)CC2(C(F)(F)F)OCCO2)cc1
-19% | COC(=O)C1(Cc2ccccc2)C2c3cc(C(=O)N4CCCC4)n(Cc4ccc(OC(F)(F)F)cc4)c3CC2CN1C(=O)c1ccccc1 (stereo unspecified)
-20% | Cc1sc(NC(=O)Cc2ccc3c(c2)OCO3)nc1-c1ccc2c(c1)CCN2C(=O)c1cccc(F)c1
-5% | CCOC(=O)c1ccccc1NC(=O)CN(c1ccccc1)S(=O)(=O)N(C)C
-15% | CCn1nc(C)c(/C=N\NC(=O)c2cccc(OC)c2)c1C
-9% | COC(=O)c1cc(C(=O)c2cccc(Cl)c2Cl)cn1C
-5% | COC(=O)CN(c1cc(Cl)ccc1OC)S(=O)(=O)c1ccc(OC)c(OC)c1
? | CC(=O)c1c(C)[nH]c(C(=O)Nc2nc(-c3ccc(-c4ccccc4)cc3)cs2)c1C
0% | O=C(CCCCn1c(=O)[nH]c2ccccc2c1=O)N1CCN(c2ncccn2)CC1
-2% | Cn1cnnc1SCC(=O)Nc1sccc1C#N
-13% | CC(=O)c1ccc(N2CCC(c3cc(-c4ccc(Cl)cc4Cl)n[nH]3)CC2)c([N+](=O)[O-])c1
-3% | CCc1nnc(NC(=O)CCC(=O)N2CCN(CCOc3ccc(C)cc3)CC2)s1
-14% | CC1=C(C(=O)OCc2ccccc2)C(c2ccccn2)c2c(n(C)c(=O)n(C)c2=O)N1 (stereo unspecified)
-8% | Cc1c(NC(=O)COc2ncnc3c(Cl)cc(Cl)cc23)c(=O)n(-c2ccccc2)n1C
-7% | CC(=O)NS(=O)(=O)c1ccc(NC(=O)c2ccccc2F)cc1
-5% | N#CCC(=O)Nc1sc2c(c1C(N)=O)CCCC2
-14% | Cc1ccc(Nc2nc(OC(C(F)(F)F)C(F)(F)F)nc(N3CCOCC3)n2)cc1
-3% | Nn1c(SCC(=O)Nc2ccc(F)cc2)nnc1C1CCCCC1
16µM* | O=C(NCc1ccco1)c1ccc(Br)s1
-11% | Cc1ccccc1NS(=O)(=O)c1cc(C(=O)Nc2cccc([N+](=O)[O-])c2)ccc1C
-14% | COc1ccccc1CNC(=O)c1ccc(OCc2c(C)noc2C)c(OC)c1
-26% | O=C(NCc1cccc(Cl)c1)c1ccc2c(c1)OCO2
-7% | Cc1cccc(NC(=S)NCCN2CCOCC2)c1C
-10% | COC(=O)c1c(C)cc(OC(C)=O)c(C)c1OC(C)=O
-19% | CC(C)C(=O)NC(=S)Nc1ccc(S(=O)(=O)N(C)Cc2ccccc2)cc1
-9% | O=C(c1ccncc1)N1CCC2(CCN(Cc3cc(C(F)(F)F)cc(C(F)(F)F)c3)CC2)CC1
-7% | COc1cccc(Oc2nc3ncn(Cc4ccccc4)c3c(=O)n2C)c1
? | CCOc1cc(C(=S)N2CCOCC2)ccc1OC
-23% | Cc1[nH]n(-c2ccc(Cl)cc2)c(=O)c1/C=N/n1c(C)nc2ccccc2c1=O
-2% | O=C(N1CCCC1)n1c(Cc2ccccc2)nc2ccccc21
16µM* | O=C(CCn1c(=O)c2ccccc2n(Cc2cccc([N+](=O)[O-])c2)c1=O)N1CCc2ccccc2C1
-4% | CS(=O)(=O)N1N=C(c2ccccc2)CC1c1cccs1 (stereo unspecified)
1% | CCNC(=O)NS(=O)(=O)c1cnccc1Nc1cccc(Cl)c1
-18% | c1nc(NCC2(N3CCOCC3)CCCCC2)c2ccsc2n1
3.2µM* | COc1ccc(OC)c(N=c2ssnc2Cl)c1
-13% | COC(=O)[C@@]1(Cc2ccc(OC)cc2)[C@H]2c3cc(C(=O)N4CCCC4)n(Cc4ccc(S(C)(=O)=O)cc4)c3C[C@H]2CN1C(=O)c1ccccc1
-2% | C[C@H](CCC(=O)O)[C@H]1CC[C@@H]2[C@H]3[C@@H](C[C@@H](O)[C@]21C)[C@]1(C)CC[C@H](O)C[C@@H]1C[C@@H]3O
-26% | COc1ccc(C(=O)c2ccccc2)c2c(O)ccc(C(=O)c3ccccc3)c12
-5% | COCCNS(=O)(=O)c1ccc2c(c1)n(C)c(=O)n2C
-7% | CC(C)(C)C1CCC2(CC1)SCC(=O)N2c1ccccc1 (stereo unspecified)
? | CN(/N=C/c1cccnc1)c1cnn(-c2ccc(F)c(Cl)c2)c(=O)c1Cl
-15% | Cc1ccc(COc2ccc(/C=N/NC(=O)c3ccc(CN4CCOCC4)cc3)cc2)cc1
-3% | Cn1cnnc1SCc1nc(N)nc(Nc2ccccc2)n1
-2% | c1ccc(C2CC(c3cccs3)n3nnnc3N2)cc1 (stereo unspecified)
-21% | CCOC(=O)c1ccccc1NC(=O)CSc1nnc(COc2ccccc2)n1CC
-5% | COC(=O)C1CSc2[nH]c(=O)sc2C1c1ccccc1 (stereo unspecified)
-16% | Cc1cc(/C=C(\C#N)C(=O)Nc2ccc(F)cc2)c(C)n1-c1ccc(N2CCOCC2)c([N+](=O)[O-])c1
? | CN=C(c1ccco1)n1c(=S)nc(-c2ccco2)n(C)c1=S
-7% | O=C(/C=C/c1cc([N+](=O)[O-])ccc1OC(F)F)NCc1ccc(F)cc1
-8% | Cc1cc(O)c(C(C)C)cc1NS(=O)(=O)c1ccccc1
-7% | C=CCCCCCCCCCCCC(O)CC(O)COC(C)=O (stereo unspecified) (tested in a mixture with another compound)
-10% | CS(=O)(=O)N1CCN(C(=O)Cc2cccs2)CC1
-5% | Cc1cccc(C)c1NC(=O)C(NC=O)c1ccccc1Cl (stereo unspecified)
-21% | COC(=O)c1cc(COc2ccc3oc(C)c(C(=O)OC)c3c2)c(C)o1
? | CCc1ccc(-c2nnn(CCC(=O)OC)n2)cc1
-7% | CC(C)CC(NS(=O)(=O)c1ccc2c(c1)oc(=O)n2C)C(=O)NC1CCCc2ccccc21 (stereo unspecified)

Reformatted: entries from further up.
SMILES | HPGD inh
O=C(/C=C/c1cc([N+](=O)[O-])ccc1OC(F)F)NCc1ccc(F)cc1 | -7%
Cc1cc(O)c(C(C)C)cc1NS(=O)(=O)c1ccccc1 | -8%

(further entries)
HPGD inh | molecule
-18% | COc1ccc2[nH]c(=O)c(CN(Cc3cccs3)Cc3nnnn3C(C)(C)C)cc2c1
? | N#Cc1c(C(F)(F)F)cc(-c2cccs2)nc1SCc1cccnc1
-9% | Cc1cc(NC(=O)CC2CCCC2)n(-c2nc3ccccc3[nH]2)n1
? | Cc1ccc(NC(=O)c2noc3c2CC(C(C)(C)C)CC3)cc1 (stereo unspecified)
-22% | CCOC(=O)c1ccc(N2CCN(c3ccccc3F)CC2)c(NC(=O)Nc2ccccc2)c1
-6% | O=c1c(F)cn(C2CCCO2)c(=O)n1Cc1ccccc1Cl (stereo unspecified)
-8% | O=C(NCc1ccccc1)c1ccc(CS(=O)(=O)c2ccccc2)o1
-17% | c1ccc(-c2nn3c(C4CCCCC4)nnc3s2)cc1
-15% | Cc1ccc(-c2nc(CS(=O)CC(=O)NCCN3CCCC3)c(C)o2)cc1 (stereo unspecified)
-20% | O=C(Nc1nnc(COc2ccc(F)cc2)s1)c1cccs1
28µM* | COc1cc(C(=O)/C=C/Nc2ccc(NC(C)=O)cc2)cc(OC)c1OC
-6% | COc1ccc(C(=O)NCC(c2cccnc2)N2CCN(c3ccccc3OC)CC2)cc1OC (stereo unspecified)
-19% | FC(F)Sc1ccc(NC(=S)NC2CCCCC2)cc1
25µM* | S=C1NC(c2ccccc2)N2C(=S)NC(c3ccccc3)N12 (stereo unspecified)
-15% | CCCCNC(=O)c1onc(CCl)c1C(=O)OC
-10% | O=C(c1ccco1)N1CCN(C(c2ccccc2Cl)c2nnnn2Cc2cccs2)CC1 (stereo unspecified)
-27% | CCN(CC)CC(=O)Nc1nn(-c2ccccc2)nc1C(N)=O
-1% | N[C@@H](Cc1cccnn1)C(=O)O
? | Cc1nn(-c2ccccc2)c2sc(C(=O)OCC(=O)N3CCCCC3)cc12
13µM* | CCc1nc(SCc2cc(Cl)ccc2OC)n[nH]1
-3% | CCN(CC)S(=O)(=O)c1ccc(-c2nnc(SCC(=O)N3CCOCC3)o2)cc1
2% | CC1CCN(CCOc2ccc(Cl)c(Cl)c2)CC1
-10% | Nc1ccc2c(c1)COc1ccccc1O2
-26% | COc1cc(CNc2ccc(N3CCCC3)cc2)ccc1OCc1ccccc1F
-4% | Cc1cccc(C)c1NC(=O)c1sccc1SCc1cccc(C(F)(F)F)c1
-19% | COc1cccc2sc(NC(=O)c3ccc(S(=O)(=O)N4CCOCC4)cc3)nc12
-14% | COc1ccc(S(=O)(=O)N(CC(=O)O)Cc2ccccc2)cc1OC
-8% | Cc1ccc(C(=O)Nc2nnc(C)s2)o1
-16% | Cc1ccc(C2C(C(=O)c3cccs3)=C(O)C(=O)N2CCN2CCOCC2)o1 (stereo unspecified)
-9% | CCCCC(C=O)CC (stereo unspecified)
? | Nc1nccnc1C(=O)OCC(=O)Nc1cccc(S(=O)(=O)N2CCCCC2)c1
4% | CCCC(=O)C1=C(O)C(C(=O)OC)C(C)(C)CC1=NC(C)C (stereo unspecified)
-21% | Cc1ccc(-c2nnn(CCC(=O)N3CCCCC3C)n2)cc1 (stereo unspecified)
-14% | CCc1ccc(CCC(=O)Nc2ccccc2C(=O)O)o1

Assay outcomes: PubChem BioAssay, National Center for Advancing Translational Sciences (NCATS)
